# Source: PubChem (ICCB-Longwood Screening Facility, Harvard Medical School)
# Choline anaer gr – inhibitors of anaerobic choline-dependent gram-negative bacterial growth. Gram-negative bacterium anaerobic choline minimal medium, absorbance growth; stronger effect = lower value; many inactives read as strong as hits in the columns shown. calls only. 55,000 compounds, 0.2% hits;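 active = growth z-score on choline under -2 at 7 or 20 h with little or no fall on glycerol, limits in tiers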;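 note: stock transfer was 300 nL into about 50 µL; the organism is E. coli; final concentration not given here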
# Choline anaer gr early – recorded beside Choline anaer gr, whose call it bears; z-score; measured here: choline growth z-score, timepoint 1;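 score of optical density at 7 h as mean of two plates; lower means less growth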
# An asterisk follows results filed as active; i = inactive; + = active, no number; & = joins results of further samples. Not all compounds are listed; count on the stated rates, not on these rows.
Choline anaer gr | Choline anaer gr early | Compound
i | -0.31 | CCN(CCNC(=O)c1nc2c(=O)n(Cc3cccc(F)c3)c3cc(C)ccc3n2n1)Cc1ccccc1
i | -0.65 | Cc1nnc(-c2csc(S(=O)(=O)NC(C)C)c2)o1
i | 1.1 | Cc1sc2ncc(C(=O)NCCO)c(=O)n2c1C
i | 1.1 | CCN1c2ccccc2NC2=C(C(=O)CC(C)(C)C2)C1c1ccccc1 (configuration not stated)
i | -0.64 | FC(F)(F)c1nc2cc3c(cc2n1Cc1ccc(Br)cc1)OCCO3
i | -0.64 | O=C(c1nc(-c2ccccc2)n(-c2ccc(F)cc2)n1)N1CCOCC1
i | -0.64 | CC(C)c1nnc(-c2coc(S(=O)(=O)N3CCCCCC3)c2)o1
i | -0.1 | O=C(CSc1nnc2c(=O)n(-c3cccc(F)c3)ccn12)c1ccccc1
i | 0.56 | O=C(O)c1cc(N2CCOCC2)ccc1NS(=O)(=O)c1ccc(Br)cc1
i | 0.18&0.25&0.03 | COc1cc(C(=O)NC2CCCNC2)cc(OC)c1OC (configuration not stated)
i | -0.81 | Cc1ccc(-n2nc3c(N4CCC(C(=O)NCc5ccccn5)CC4)nnc(C)c3c2C)cc1
i | 0.38 | O=C(NCC1CCCO1)c1cccnc1Oc1cccc(NS(=O)(=O)c2ccccc2)c1 (configuration not stated)
i | 2.8 | O=C(CN1CCN(S(=O)(=O)c2ccc(F)c(F)c2)CC1)Nc1nnc(-c2ccccc2)s1
i | 0.73 | O=c1c(S(=O)(=O)N2CCCC2)cccn1Cc1cccc(F)c1
i | -0.75 | C=CCSc1nc2c(c(=O)[nH]1)CCCC2
i | 0.92 | O=C(NC1CCCCC1)C1CCN(c2cnc(N3CCCCCC3)nc2)CC1
i | 0.33 | O=C1CN(Cc2ccc(F)cc2Cl)S(=O)(=O)c2ccccc2N1Cc1cccc(F)c1
i | -0.09 | CCN(CCCNC(=O)CCC1=NS(=O)(=O)c2ccccc2N1)c1ccccc1
i | 0.09 | Cc1cc(C)cc(NC(=O)C2Nc3cc(F)ccc3S(=O)(=O)N2)c1 (configuration not stated)
i | 0.22 | O=C(O)c1cn(-c2ccc(F)cc2)c(=O)c2ccccc12

# Following part:
Choline anaer gr | Choline anaer gr early | Compound
i | -0.68 | COc1ccc(OC)c(NC(=O)COc2cc(C)c3c(C)nn(-c4cccc(Cl)c4C)c3n2)c1
i | -1.2 | Cc1ccccc1N1CC(c2nnc(NC(=O)c3ccccc3)s2)CC1=O (configuration not stated)
i | -1.2 | Cn1nc(C(=O)Nc2cccc(F)c2)c2c1CCN(C(=O)CCC(=O)NC1CCCC1)C2
i | -0.03 | COC(=O)c1cnc(N(C)C2CCCCC2)c2ccccc12
i | 0.74 | CC1(C)CC(=O)C2=C(C1)Nc1ccccc1NC2c1ccc(F)c(F)c1 (configuration not stated)
i | -1.2 | COc1ccc(-c2nc3sc(CCNC(=O)C(C)(C)C)c(C)n3n2)cc1
i | -0.46 | CCCn1cnc2cc(-c3noc(CNC(=O)c4ccc(C)cc4)n3)ccc21
i | -1.1 | COc1ccc(NC(=O)N2Cc3cccn3-c3ccccc32)cc1OC
i | -0.68 | O=C(O)c1cc(NS(=O)(=O)N2CCOCC2)ccc1N1CCCC(CN2CCCC2)C1 (configuration not stated)
i | 0.97 | COc1ccc(OCc2nnc3sc(-c4ccccn4)nn23)cc1
i | -0.68 | CC1(C(=O)NC2CCCC2)Cn2c(ccc2-c2ccccc2)C(=O)N1Cc1ccc2c(c1)OCO2 (configuration not stated)
i | -3.2 | CCCCCN=c1ccn(Cc2ccccc2)c2ccccc12
i | -1.7 | Cc1cc(NC(=O)CC2CCCC2)n(-c2ncnc3c2cnn3-c2ccc(F)cc2)n1
i | -1.4 | Cc1noc2c1C(c1cccc(O)c1)C1=C(CC(c3ccccc3)CC1=O)N2 (configuration not stated)
i | 0.97 | Cc1ccccc1NC(=O)c1ccc(=O)n(Cc2ccc(F)cc2)c1
+ | -1.6* | CC(C)CN1CCN(S(=O)(=O)c2ccc(-c3nnc(C(C)C)o3)o2)CC1
i | 1.6 | CCc1ccc(-c2noc(CSc3nc4cc5c(cc4c(=O)n3Cc3ccncc3)OCO5)n2)cc1
i | -0.64 | O=C(Nc1ccc(F)cc1)c1nnc(C2CCCN(C(=O)Nc3ccccc3Cl)C2)s1 (configuration not stated)
i | 0.24 | CN(C)CCn1c2ccccc2n2cc(-c3ccc(F)cc3)nc12
i | -0.65 | CCCCCCCCCC(=O)OCC(CO)OC(=O)CCCCCCCCC (configuration not stated)

# Further structures follow.
Choline anaer gr | Choline anaer gr early | Compound
i | 0.84 | O=C(Nc1ccc(Cl)cn1)c1cc(-c2ccccn2)nc2ccccc12
i | 0.14 | O=C1CN(Cc2cccc(Br)c2)S(=O)(=O)c2ccccc2N1Cc1ccc(F)cc1
i | 0.72 | O=C(NCCC1=CCCCC1)C1CCN(c2cc(-c3ccc(F)cc3)ncn2)CC1
i | -0.46 | O=S(=O)(NCCc1n[nH]c(Cc2ccc(F)cc2)n1)c1ccc(Cl)cc1
i | -0.46 | Cc1nn(-c2ccccc2)c(N2CCC(C(=O)NC3CCCC3)CC2)c1NC(=O)C(C)C
i | 0.03 | CC(C)c1cc(C(=O)N2CCCC2c2cc(C(C)C)on2)on1 (configuration not stated)
i | -1.2 | CCc1nc(-c2ccc(C)c(S(=O)(=O)NC3CC3)c2)no1
i | 0.08 | O=C(NCCN1CCOCC1)c1cnc2sc3c(n2c1=O)CCC3
i | -0.03 | O=S(=O)(c1ccccc1)N1CCn2cccc2C1c1ccc(F)c(F)c1 (configuration not stated)
i | 0.21 | CCOc1ccc(N2CC(C(=O)NCc3nnnn3-c3ccc(F)c(F)c3)CC2=O)cc1 (configuration not stated)
i | -1.6 | Cc1c(-c2nnc(C(=O)NCCc3ccc(Cl)cc3)o2)oc2ccccc12
i | -1 | CCN(Cc1ccccc1)c1ncc(NS(C)(=O)=O)cc1C(=O)O
i | 0.5 | Cc1cccc(OCc2nc(C)c(C(=O)Nc3ccccc3)s2)c1
i | 0.86 | COc1ccc(OCC(=O)Nc2ccc3c(c2)nc(CCNC(C)=O)n3C)cc1
i | 1.2 | Cc1cc(-c2nn3c(-c4ccc(C(C)(C)C)cc4)nnc3s2)no1
i | 0.12 | CC(=O)NCCNC(=O)c1ccc(Nc2nn3c(=O)c4ccccc4nc3s2)cc1
i | -0.59 | CCc1nc2nc3c(c(Nc4ccc(Br)c(C)c4)n2n1)CCC3
i | -0.53 | O=C(NCc1ccccc1)C1CCCCN1S(=O)(=O)c1ccc(F)cc1 (configuration not stated)
i | -1.5 | CC1(C(=O)NC2CCCCC2)Cn2c(cc3occc32)C(=O)N1C1CCCCC1 (configuration not stated)
i | -1.1 | CCOC(=O)c1ccccc1NC(=O)CSc1nc2cn(CC)nc2c(=O)n1Cc1ccc(Cl)cc1

# In a second layout: five of the compounds above
compound	Choline anaer gr	Choline anaer gr early
Cc1c(-c2nnc(C(=O)NCCc3ccc(Cl)cc3)o2)oc2ccccc12	i	-1.6
CCN(Cc1ccccc1)c1ncc(NS(C)(=O)=O)cc1C(=O)O	i	-1
Cc1cccc(OCc2nc(C)c(C(=O)Nc3ccccc3)s2)c1	i	0.5
COc1ccc(OCC(=O)Nc2ccc3c(c2)nc(CCNC(C)=O)n3C)cc1	i	0.86
Cc1cc(-c2nn3c(-c4ccc(C(C)(C)C)cc4)nnc3s2)no1	i	1.2

# Remaining list, next part.
Choline anaer gr | Choline anaer gr early | Compound
i | -1.4 | CCc1ccc(-n2nc(C)c3c(C)cc(OCc4cc(=O)n5ccccc5n4)nc32)cc1
i | -1.7 | Cc1[nH]c(C)c(S(=O)(=O)N2CCC(C(=O)NCc3ccc(Cl)cc3)CC2)c1C(=O)N1CCCC1
i | 0.55 | Cc1nn(-c2cc(N(C)C)ncn2)c(C)c1CCC(=O)N1CCOCC1
i | -1.1 | CCc1ccc(S(=O)(=O)n2cnc(C)c2)cc1
i | -0.02 | CC(Oc1ccc(C(C)C)cc1)C(=O)Nc1ccc2c(c1)NC(=O)CO2 (configuration not stated)
i | 0.4 | O=S(=O)(O)CCS
i | -1.2 | CCNc1nc(C(N)=O)c(NC(=O)c2cccc(Cl)c2)s1
i | 0.43 | COc1ccc(S(=O)(=O)N2CCc3cc4ccc(OC)cc4nc32)c(OC)c1
i | -0.82 | CC(=O)N1CCc2c(sc3nc(SCC(=O)Nc4nccs4)n(-c4ccccc4)c(=O)c23)C1
i | 1.2 | O=C(CCc1nc(CSc2n[nH]c(-c3ccccc3)n2)no1)Nc1cccc(Br)c1
i | 0.61 | CC(C)CCNC(=O)C1(C)CCC(=O)N1CCCN1CCCC1 (configuration not stated)
i | 0.23 | CC(C)Sc1cc2c(cc1NS(=O)(=O)c1ccccc1Br)n(C)c(=O)n2C
i | -0.61 | CCCc1nc2nc(C)[nH]n2c(=O)c1NC(=O)Nc1ccc2c(c1)OCCO2
i | -0.42 | Cc1oc2ncnc(N3CCC(C(=O)NC4CCCC4)CC3)c2c1C
i | 0.28&1 | O=C(O)c1cc(=O)c2c(Cl)cc(Cl)cc2[nH]1
i | -0.51 | CCn1c(NC(=O)Nc2cccc(C)c2C)cc2sccc21
i | 0.49 | O=C(CCCc1nc2cccnc2n1Cc1ccc(F)cc1)N1CCN(Cc2ccccc2)CC1
i | 3.4 | Cc1cccc(Cn2c(SCC(C)O)nc3c2c(=O)[nH]c(=O)n3C)c1 (configuration not stated)
i | -1.1 | Cn1nc(C(=O)Nc2ccc3c(c2)OCCO3)cc1C(F)(F)F
i | -0.68 | O=C(NCc1cccnc1)C1CCN(S(=O)(=O)c2ccc3[nH]c4c(c3c2)CCCCC4)CC1

# Additional entries:
Choline anaer gr | Choline anaer gr early | Compound
i | 0.12 | O=S1(=O)NC(=NCCc2ccccc2)c2ccccc21
i | -0.91 | O=C(NCC(c1ccccc1Cl)N1CCCC1)c1cc(-c2ccccc2)on1 (configuration not stated)
i | 0.06 | Cc1cc(-c2nnc3sc(COc4ccc(C(C)(C)C)cc4)nn23)n[nH]1
i | 0.09 | CCn1c(=O)n(-c2ccc3c(c2)OCO3)c2nc(-c3ccc(C(C)C)cc3)nc(C(N)=O)c21
i | -1.1 | CC1CCN(S(=O)(=O)c2ccc3c(c2)C(=O)Nc2cc(Cl)ccc2O3)CC1
i | -0.33 | Cn1nc(C(=O)Nc2ccc(F)cc2)c2c1-c1cc(Cl)ccc1SC2
i | -0.07 | CC(c1nnc(SCC(=O)N2CCN(c3ccccc3)CC2)n1C)N1C(=O)COc2ccccc21 (configuration not stated)
i | 2.5 | COc1ccc(F)cc1-c1cc(N2CCN(S(=O)(=O)c3cnn(C(F)F)c3C)CC2)ncn1
i | -0.66 | O=C1CCSc2ccc(S(=O)(=O)NCc3cccnc3)cc2N1
i | -0.64 | Cc1cc(C)nc(SCCn2c(N3CCOCC3)nc3c2c(=O)[nH]c(=O)n3C)n1
i | 0.26 | CN(C)c1ccc(-c2nnc3sc(-c4cccnc4)nn23)cc1
i | 0.81 | CCN(CC)CCCNC(=O)c1ccc(CN2CC(=O)N3CCCCC3C2=O)cc1 (configuration not stated)
i | -0.18 | Cc1ccc(NC(=O)NCc2noc3ccccc23)c(Br)c1
i | 0.04 | CNC(=O)Nc1cc2c(cc1N1CCOCC1)n(C)c(=O)n2C
i | 1.3 | CCC(=O)N1c2ccc(S(=O)(=O)N3CCCCC3)cc2CC1C(=O)NCCCOC (configuration not stated)
i | -3.5&-1.7 | CC(=O)[C@]1(O)Cc2c(O)c3c(c(O)c2C(OC2CC(N)C(O)C(C)O2)C1)C(=O)c1ccccc1C3=O (some centres not stated)
i | -0.15 | O=C(CNC(=O)c1ccccc1)NCC(=O)N1CCCc2ccccc21
i | 0.11 | O=C1Nc2ccccc2C12OCC1(CO2)COC2(OC1)C(=O)Nc1ccccc12 (configuration not stated)
i | 3.3 | CCCCC(=O)Nc1cccc(-c2nc(-c3ccccc3)no2)c1
i | 1.2 | Cc1nn(-c2ccc3nncn3n2)c(C)c1Sc1nnc(N)s1

# Compound profiles, as listed above.
# Record of Cn1nc(C(=O)Nc2ccc(F)cc2)c2c1-c1cc(Cl)ccc1SC2 : Choline anaer gr: i; Choline anaer gr early: -0.33
# Record of O=C1CCSc2ccc(S(=O)(=O)NCc3cccnc3)cc2N1 : Choline anaer gr: i; Choline anaer gr early: -0.66

# (next part)
Choline anaer gr | Choline anaer gr early | Compound
i | -0.19 | Cc1cc(C)c(S(=O)(=O)N2CCCC2c2nc(-c3ccc(F)cc3)no2)c(C)c1 (configuration not stated)
i | 0.21 | CCOC(=O)c1[nH]c(C)c(CCC(=O)NC2CCS(=O)(=O)C2)c1C (configuration not stated)
i | 0.09 | COc1cccc(-n2cc[nH]c(=S)c2=O)c1
i | -0.42 | Cc1ccc(-n2nc(C)c3c(=O)n(CC(=O)NCc4ccc(C)c(C)c4)ccc32)cc1
i | 0.73 | Cc1cc(N2CCCC2)n2nc(C(F)(F)F)nc2n1
i | -0.32 | O=C(c1cnc2ccccc2c1Nc1ccccc1)N1CCOCC1
i | 1.2 | CCC(=O)Nc1nc2ccc(NC(=O)CSc3nccc(C)n3)cc2s1
i | 2.8 | Cc1ccc(Nc2nc(NCCCO)nc3c2cnn3-c2ccccc2)cc1
i | 0.27 | COc1ccc(NC(=O)c2nnc(CSCC(=O)NCCc3c(C)noc3C)s2)cc1
i | 0.48 | Cc1ccc(-n2c(C)c(C)c3c2ncn2nc(-c4ccc(F)cc4)nc32)cc1
i | 0.31 | O=C(NCc1ccccc1)N1CCOc2ccc(COCc3ccccc3F)cc2C1
i | 0.26 | CCCNC(=O)c1sc(-n2[nH]c(C)c(Cc3ccc(Cl)cc3)c2=O)nc1C
i | 1.4 | CCN1CCN(c2cc(C)nc3nc(CN4CCN(c5ccccn5)CC4)nn23)CC1
i | -1.4 | COc1ccc(S(=O)(=O)Nc2ccc3nc(N4CCN(C)CC4)cc(C(=O)O)c3c2)cc1Cl
